Source: PubChem BioAssay (several laboratories)
Mtb growth: M. tuberculosis H37Rv growth inhibitors, H37Rv strain (AID 1626); M. tuberculosis H37Rv growth inhibition; higher % means a stronger effect; inhibition, % at 10 µM, or IC50 in µM where a hit was titrated; actives 0.95% (n = 220,000);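 active = confirmed in a dose series; inconclusive = inhibition above 80% but not taken into the dose series; inactive = below 80% or under 30% at every dose of the series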;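 also: bacteria incubated seven days before Alamar blue readout; 0% = bacteria only wells and 100% = bacteria with antibiotic wells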
Arbovirus anti: antivirals against arbovirus infection, primary screen, cell-based, full library, 10K replicate subset; actives 0.37% (n = 200,000); arbovirus infection cell-based antiviral screen; AID 1251, 2008; inhibition, % at 10 µM;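 active = inhibition from about 30%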;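 also: bluetongue infection of BSR cells; cell survival read as ATP light after 72 h; 0% = infected wells without compound and 100% = uninfected wells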
YopH PTP inh: YopH tyrosine phosphatase inhibitors, primary screen, biochemical, fluorescence Ex485/Em525. YopH tyrosine phosphatase [Yersinia enterocolitica]. inhibition, %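 (about 10 µM by stock and volumes)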. actives 0.16% (n = 140,000);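 active = inhibition of 50% or more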;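 also: controls were vehicle for no effect and minimum signal wells for full effect; inactives centre near -20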
Mtb betalactam: beta-lactam sensitization of Mtb H37Rv, H37Rv; M. tuberculosis H37Rv growth with meropenem, percent inhibition; hits of this screen are not shown here; inhibition, % at 25 µM; actives 0.27% (n = 330,000); AID 434955, 2010;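 active = about 74% or more and at least 40 points above the plate without the antibiotic, then above 30% in a dose series; inconclusive = first-round hits that could not be retested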;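 also: growth measured after seven days incubation then overnight dye step; 0% = bacteria only wells and 100% = bacteria with antibiotic; twin plates without the antibiotic show which effects depend on it; some results filed as inactive read as strong as hits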
RecA intein inh: Mtb RecA intein splicing inhibitors, primary screen, biochemical, fluorescence, HTS; inhibition, %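 (about 9 µM by stock and volumes)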; cell-free RecA intein splicing; AID 2221, 2009; actives 0.75% (n = 290,000); in the data active = inhibition above about 30%; inconclusive = no clear call, values can overlap the other calls;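 also: 0% = vehicle wells and 100% = reference inhibitor control wells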
Target sequence (P9WHJ3 whole entry, looked up): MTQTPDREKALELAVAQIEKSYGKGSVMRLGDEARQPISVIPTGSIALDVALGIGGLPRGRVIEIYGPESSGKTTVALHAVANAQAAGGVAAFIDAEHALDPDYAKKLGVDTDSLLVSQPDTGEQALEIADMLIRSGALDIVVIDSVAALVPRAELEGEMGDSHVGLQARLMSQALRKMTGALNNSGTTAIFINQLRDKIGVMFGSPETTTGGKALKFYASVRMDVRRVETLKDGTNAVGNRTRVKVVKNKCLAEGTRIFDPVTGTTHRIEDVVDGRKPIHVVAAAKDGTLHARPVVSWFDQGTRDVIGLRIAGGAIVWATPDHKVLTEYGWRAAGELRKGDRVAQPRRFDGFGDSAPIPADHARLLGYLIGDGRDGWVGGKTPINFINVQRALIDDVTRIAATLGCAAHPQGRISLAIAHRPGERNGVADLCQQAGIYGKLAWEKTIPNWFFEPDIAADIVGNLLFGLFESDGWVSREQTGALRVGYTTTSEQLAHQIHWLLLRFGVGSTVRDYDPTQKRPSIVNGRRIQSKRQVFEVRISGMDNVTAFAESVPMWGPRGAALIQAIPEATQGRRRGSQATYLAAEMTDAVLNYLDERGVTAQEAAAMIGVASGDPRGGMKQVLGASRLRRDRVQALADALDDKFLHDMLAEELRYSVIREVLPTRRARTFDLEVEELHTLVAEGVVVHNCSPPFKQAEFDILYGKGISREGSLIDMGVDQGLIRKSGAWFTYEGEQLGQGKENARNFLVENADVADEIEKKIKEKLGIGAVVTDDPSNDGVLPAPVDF
Arbovirus anti repeat: second read-out of Arbovirus anti, no call of its own (marks repeat the call); inhibition, %; measured here: 10K subset replicate screen; many hits read low in the repeat;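 first of two repeat runs on a subset; 0% = infected and 100% = uninfected wells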
Starred values were filed as active, the others as inactive.

For Cc1c(Nc2scc(-c3ccccc3)[n+]2-c2ccccc2)c(=O)n(-c2ccccc2)n1C the results were Mtb growth 2.7%, Arbovirus anti -6.0, Mtb betalactam -0.5 and RecA intein inh 0.8.
O=C(CCNC(=O)c1ccc([N+](=O)[O-])cc1)Nc1ccc(S(=O)(=O)N2CCOCC2)cc1 was read as Mtb betalactam 5.8 and RecA intein inh 0.5.
Screening CC(CCc1ccccc1)NC(=O)C1CCCN(c2nnc(-n3cccc3)s2)C1 (centres undefined) returned Mtb growth -4.9%, Arbovirus anti 5.3, YopH PTP inh -2.4, Mtb betalactam -3.8, RecA intein inh 2.4 and Arbovirus anti repeat -1.0.
For O=C(Oc1ccc(C(=S)N2CCOCC2)cc1)c1ccc([N+](=O)[O-])cc1 the results were Mtb betalactam 5.7 and RecA intein inh 2.1.
`COc1ccc(C=NCCC2(O)CC(C)N(C)CC2C)cc1` (centres undefined) gave Mtb growth -3.2%, Arbovirus anti 10.6, YopH PTP inh -17.1, Mtb betalactam 6.6 and RecA intein inh 5.0.
Screening CCOc1ccc(NC2C=CS(=O)(=O)C2)cc1 (centres undefined) returned Mtb growth >100µM*, Arbovirus anti -14.9, YopH PTP inh -2.0, Mtb betalactam 96.3 and RecA intein inh 4.4.
`N#Cc1ccccc1NC(=O)CNc1ccc(Cl)c(C(F)(F)F)c1` gave Mtb growth 1.7%, Arbovirus anti 15.8, YopH PTP inh -32.4, Mtb betalactam -1.7 and RecA intein inh -0.2.
Screening CCN(CC(=O)NCc1cccs1)C(=O)/C=C/c1cccc(Br)c1 returned Mtb betalactam -8.5 and RecA intein inh 1.5.
Screening COc1cccc(C2/C(=C(/O)c3ccc4c(c3)OCO4)C(=O)C(=O)N2CCN2CCOCC2)c1 (centres undefined) returned Mtb betalactam -5.1 and RecA intein inh -0.8.
`COCCCNC(=O)CN1CCN(Cc2ccccc2Cl)C1=O` gave Mtb growth 2.9%, Arbovirus anti 4.2, YopH PTP inh -34.4, Mtb betalactam -4.4 and RecA intein inh 0.3.
For O=c1[nH]c2ccccc2nc1NCc1ccccc1 the results were Mtb betalactam 0.4 and RecA intein inh -1.6.
For O=C(COC(=O)C1CCN(c2ccc(C(F)(F)F)cn2)CC1)c1ccccc1Cl the results were Mtb betalactam 63.8 and RecA intein inh 3.3.
Cc1ccn2c(c1)nc(=S)n2C(=O)c1ccccc1 was read as Mtb growth 1.2%, Arbovirus anti -1.3, YopH PTP inh -32.1, Mtb betalactam 7.1 and RecA intein inh -3.3.
OCCCNCc1ccc(Cl)cc1Cl was read as Mtb growth 8.0%, Arbovirus anti 4.6, Mtb betalactam 6.8 and RecA intein inh -1.0.
COCCN(CCOC)S(=O)(=O)c1ccc(C(=O)Nc2nnc(C3CC3)o2)cc1 was read as Mtb growth -9.8%, Arbovirus anti 7.0, YopH PTP inh -39.5 and Mtb betalactam 51.2.
COc1cc(C(c2c(C)[nH][nH]c2=O)c2c(C)[nH][nH]c2=O)ccc1OS(=O)(=O)c1ccccc1 was read as Mtb growth 0.3%, Arbovirus anti -7.9, YopH PTP inh -42.1, Mtb betalactam -10.1 and RecA intein inh 94.9*.
For Cc1ccccc1/C=N\NC(=O)c1ccccc1-n1cccc1 the results were Mtb growth 0.7%, Arbovirus anti -0.8, Mtb betalactam 7.6 and RecA intein inh -0.4.
CCOC(=O)c1c(NC(NC(C)=O)C(Cl)(Cl)Cl)sc(C(C)=O)c1C (centres undefined) was read as Mtb growth 3.1%, Arbovirus anti -4.0, YopH PTP inh -39.0, Mtb betalactam 0.8 and RecA intein inh -2.0.
Screening Cc1ccnc(NC(=S)NC(=O)/C=C/c2ccccc2)c1 returned Mtb growth -1.7%, Arbovirus anti 10.1, YopH PTP inh -25.6, Mtb betalactam -1.4 and RecA intein inh -4.2.
O=C(CN1CCN(c2ccc(O)cc2)CC1)NC(c1ccccc1)c1ccccc1 was read as Mtb growth -7.5%, Arbovirus anti -22.9, YopH PTP inh -27.6, Mtb betalactam -4.2 and RecA intein inh -7.5.
`CC(C)(C)c1ccc(C(=O)N2CCC3(CC2)NCCc2[nH]cnc23)cc1` gave Mtb betalactam -7.2 and RecA intein inh 0.2.
Cc1ccc(-c2cc(C(=O)OCn3nnc4ccccc4c3=O)c3ccccc3n2)cc1 was read as Mtb growth 8.3%, Arbovirus anti -0.1, YopH PTP inh -23.1, Mtb betalactam 13.5 and RecA intein inh -0.2.
`COc1ccc(C(=O)Nc2ccc(Cl)cc2C(=O)N2CCCC(C)C2)cc1OC` (centres undefined) gave Mtb growth 2.6%, Arbovirus anti -5.4, YopH PTP inh -12.8, Mtb betalactam -2.3 and RecA intein inh 4.0.
Oc1ccccc1N1CCN(C(=S)Nc2ccc(SC(F)F)cc2)CC1 was read as Mtb growth -14.0%, Arbovirus anti -1.8, Mtb betalactam -6.3 and RecA intein inh 3.7.
For Cc1ccc(OCC(=O)n2nc(C)cc2C)c(C)c1 the results were Mtb growth 10.0%, Arbovirus anti 2.8, YopH PTP inh 0.3, Mtb betalactam -1.1 and RecA intein inh 8.8.
`Cc1ccccc1OCC(=O)Nc1ccncc1` gave Mtb betalactam 0.8 and RecA intein inh -2.6.
`Cc1cccc(C(=O)NC(=S)N2CCN(C)CC2)c1` gave Mtb growth -1.5%, Arbovirus anti 12.7, YopH PTP inh -6.6, Mtb betalactam -1.0 and RecA intein inh -1.4.
For CCOCC(=O)Nc1nc(C)cc(C)n1 the results were Mtb growth -16.6%, Arbovirus anti -5.8, YopH PTP inh -16.5, Mtb betalactam -2.8 and RecA intein inh 2.1.
`O=[N+]([O-])c1ccc(C2=NCCO2)cc1` gave Mtb growth -4.8%, Mtb betalactam -7.1 and RecA intein inh -3.6.
`Cc1nn(CC(=O)O)c2ccccc12` gave Mtb growth -8.5%, Arbovirus anti 5.6, YopH PTP inh -55.1, Mtb betalactam 0.6 and RecA intein inh -0.3.
Screening Cc1cc(Cl)ccc1NC(=S)NCCCO returned Mtb growth 6.9%, Arbovirus anti 7.0, YopH PTP inh -28.6, Mtb betalactam -1.7 and RecA intein inh -3.7.
CCN(CC(=O)Nc1sc2c(c1C#N)CCC(C)C2)Cc1nc2ccccc2c(=O)[nH]1 (centres undefined) was read as Mtb growth 39.0%, Arbovirus anti 15.1, Mtb betalactam -5.4 and RecA intein inh -2.7.
CSc1nc(-c2ccco2)nn1C(=O)c1ccccc1Cl was read as Mtb growth -3.7% and RecA intein inh 24.6.
O=C(NC1CCCCC1)Oc1ccccc1 was read as Mtb growth 7.9%, Mtb betalactam 4.7 and RecA intein inh -0.5.
Screening O=C(c1ccc(Cl)c(S(=O)(=O)N2CCCCCC2)c1)N1CCN(c2ccccn2)CC1 returned Mtb growth 3.0%, Arbovirus anti 4.7, YopH PTP inh -3.5 and RecA intein inh 4.3.
`CC(CCc1ccccc1)NC(=O)COC(=O)c1ccc(S(C)(=O)=O)c([N+](=O)[O-])c1` (centres undefined) gave Mtb growth 0.1%, Arbovirus anti -32.3, Mtb betalactam 11.0 and RecA intein inh 55.4*.
Screening Cn1c(-c2ccc(F)cc2)cnc1SCC(=O)N1CCCCC1 returned Mtb growth -1.6%, Arbovirus anti 0.8, YopH PTP inh -33.4, Mtb betalactam 2.7 and RecA intein inh -0.2.
`COC(=O)c1cc(Br)c(N)cc1OC` gave Mtb growth -5.2%, Arbovirus anti -1.9, Mtb betalactam -1.0 and RecA intein inh 2.6.
Screening O=C(CSc1nc2ccccc2o1)N/N=C/c1ccco1 returned Mtb betalactam -9.0 and RecA intein inh -0.2.
For Cc1ccc(OCCCCN2CCCC(C)C2)c([N+](=O)[O-])c1 (centres undefined) the results were Mtb growth -3.3%, Arbovirus anti -3.6, Mtb betalactam -1.5 and RecA intein inh -1.5.
For Cc1cc(NC(=O)C(C)SCC(=O)Nc2cc(Cl)ccc2N2CCN(C)CC2)no1 (centres undefined) the results were Mtb betalactam -4.5 and RecA intein inh 3.4.
For O=C(CCc1ccccc1)NC(=S)Nc1ccccc1[N+](=O)[O-] the results were Mtb betalactam inconclusive and RecA intein inh 2.0.
Screening COc1ccc(Br)cc1CNC(=O)C1CCN(S(=O)(=O)N2CCCCC2)CC1 returned Mtb growth -1.7%, Arbovirus anti -12.4, YopH PTP inh -6.0, Mtb betalactam 2.8 and RecA intein inh -1.2.
Screening COP(=O)(OC)c1nc(-c2ccccc2)oc1NCc1ccccc1 returned Mtb growth 8.8%, Arbovirus anti 1.0, YopH PTP inh -25.0, Mtb betalactam 4.9 and RecA intein inh 1.6.
`CC(=O)Nc1ccc(OC(=O)c2ccccc2N)cc1` gave Mtb growth -3.1%, Arbovirus anti 3.2, YopH PTP inh -195.0, Mtb betalactam -0.5, RecA intein inh -0.4 and Arbovirus anti repeat 0.8.
Screening COCCNC(=O)Cn1cc2c(n1)CCC(C)C2 (centres undefined) returned Mtb growth -3.1%, Arbovirus anti -1.9, YopH PTP inh -47.1, Mtb betalactam -5.2, RecA intein inh -1.5 and Arbovirus anti repeat 3.3.
CSC1=NCCN1C(=O)c1c(-c2ccccc2Cl)noc1C was read as Mtb growth -6.1%, Arbovirus anti -5.2, YopH PTP inh -27.5, Mtb betalactam -12.2 and RecA intein inh 2.2.
`O=C(CSc1nnc(-c2ccncc2)n1Cc1ccco1)c1ccc(Cl)cc1` gave Mtb growth 0.7%, Arbovirus anti -1.0, YopH PTP inh -8.1, Mtb betalactam -5.0 and RecA intein inh 3.8.
Screening CCN1CCN(c2nc(N)c([N+](=O)[O-])c(Nc3ccc(C)c(C)c3)n2)CC1 returned Mtb growth 51.5%, Arbovirus anti 5.7, YopH PTP inh -9.0, Mtb betalactam inconclusive and RecA intein inh 0.6.
Screening CN1CCN(c2nc3ccccc3nc2C(C#N)C(=O)OC2CCCCC2)CC1 (centres undefined) returned Mtb growth -0.8%, Arbovirus anti -11.8, YopH PTP inh -37.9, Mtb betalactam 34.3 and RecA intein inh 4.6.
Screening COc1cccc(N(C(=O)c2snc(C(N)=O)c2N)C(C(=O)NCC2CCCO2)c2ccc3ncccc3c2)c1 (centres undefined) returned Mtb betalactam -1.6 and RecA intein inh 0.5.
For C=CCn1c(=O)[nH]c2nc3cc(N=CN(C)C)c(C)cc3nc2c1=O the results were Mtb growth -6.0%, Mtb betalactam -5.3 and RecA intein inh -21.6.
For Cc1ccc(S(=O)(=O)/N=C2/C=C(C3C(=O)CC(C)(C)CC3=O)C(=O)c3ccccc32)cc1 the results were Mtb growth -7.8%, Arbovirus anti -21.9, YopH PTP inh 16.6, Mtb betalactam 8.5 and RecA intein inh 84.7*.
`Cc1ccc(-c2nc(CN(C)Cc3ccc4nccnc4c3)c(C)o2)s1` gave Mtb growth 0.9%, Arbovirus anti 2.8, Mtb betalactam -8.8 and RecA intein inh -2.5.
Screening N#Cc1ccccc1NC(=O)COC(=O)CSc1nc2ccccc2o1 returned Mtb growth -6.5%, Arbovirus anti 0.6, YopH PTP inh 40.8, Mtb betalactam 5.7 and RecA intein inh 0.9.
For Cn1c(SCc2ccc(Br)cc2)nc2c(c1=O)SCC2 the results were Mtb growth 15.3%, Arbovirus anti -0.7, Mtb betalactam -2.2 and RecA intein inh 1.7.
Screening CC(C)(C)NC(=O)Cn1c(=O)oc2cc(S(=O)(=O)N3CCc4ccccc43)ccc21 returned Mtb growth -2.3%, Arbovirus anti 7.3, YopH PTP inh -49.6, Mtb betalactam 0.1, RecA intein inh 1.1 and Arbovirus anti repeat 4.8.
`CCCc1ccc2oc(C(=O)N(C)Cc3nccs3)c(C)c2c1` gave Mtb betalactam 99.1 and RecA intein inh 6.2.
Cc1cc(NCc2ccco2)nc(N2CCC(C(=O)NC3CCCCC3)CC2)n1 was read as Mtb growth -12.3%, Arbovirus anti -1.0, Mtb betalactam -8.6 and RecA intein inh -0.6.
Cc1cc(C)n2nc(-c3cnn(C)c3C(F)(F)F)c(Cl)c2n1 was read as Mtb growth -15.1%, Arbovirus anti -2.6, YopH PTP inh -19.3, Mtb betalactam -12.1 and RecA intein inh 2.8.
For COc1ccc(NC(=O)c2ccco2)c([N+](=O)[O-])c1 the results were Mtb growth -3.7%, Arbovirus anti -6.1, YopH PTP inh -5.0, Mtb betalactam 10.0 and RecA intein inh 1.3.

In the list so far, these have two or more sulfur atoms.
Oc1ccccc1N1CCN(C(=S)Nc2ccc(SC(F)F)cc2)CC1 was read as Mtb growth -14.0%, Arbovirus anti -1.8, Mtb betalactam -6.3 and RecA intein inh 3.7.
For Cn1c(SCc2ccc(Br)cc2)nc2c(c1=O)SCC2 the results were Mtb growth 15.3%, Arbovirus anti -0.7, Mtb betalactam -2.2 and RecA intein inh 1.7.

Only part of the results is shown; rates above refer to the full screens.
